NPYLR7 agonist = activates Aedes aegypti NPYLR7 receptor | HEK293T NPYLR7/Galpha15, GCaMP6s calcium fluorescence | activation, % at 10 µM | 270,000 compounds, 0.15% hits | AID 1259423; in the data active means activation above about 40%;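 further: 0% = vehicle and 100% = reference agonist at the receptor; some compounds past the cut are filed as inactive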
NPYLR7 agonist max-min = also measured in NPYLR7 agonist; calls as there; activation, %; measured here: Max-Min RFU normalised activation; some inactives read as strong as hits;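 span of the calcium signal over five minutes; 0% = vehicle and 100% = native peptide agonist; compound fluorescence can raise it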
An asterisk follows results filed as active; & = joins results of further samples. The list is partial; count on the stated rates, not on these rows.

No. | compound | NPYLR7 agonist | NPYLR7 agonist max-min
1 | COC(CNS(=O)(=O)c1cccc(C)c1)OC | 0 | 1
2 | Cc1cc(C(=O)CN2C(=O)C(=O)N(CCC3=CCCCC3)C2=O)c(C)n1CC1CCCO1 (stereo not drawn) | 3 | 1
3 | CC(C)n1cnnc1C1CCCN(c2nccnc2C#N)C1 (stereo not drawn) | -1 | -1
4 | COc1cc(O)cc(C(=O)c2ccccc2)c1S(=O)(=O)O | -10 | -4
5 | CCOC(=O)c1ccc2c(c1)nc(SCc1cc(Cl)ccc1Cl)n2Cc1ccco1 | 2 | -2
6 | CCCn1cnnc1CN(C)Cc1ccnc2ccccc12 | 11 | 2
7 | CCOC(=O)C1=C(C)N(C)C(=O)NC1c1ccc(OCc2ccc(C(=O)OC)cc2)cc1 (stereo not drawn) | -2 | -3
8 | CCOC(=O)CCCNC(=O)CSc1nnc(NCc2ccccc2)s1 | -2 | -2
9 | CCCc1c(C(=O)Nc2cc(-c3onc4c3CCCC4)cc(C(F)(F)F)c2)cnn1-c1ccccc1 | 16 | 26
10 | O=C(c1ccc(F)cc1)N1CCCC(OCc2ccccc2)C1 (stereo not drawn) | -4 | -1
11 | Cc1ccccc1C(=O)NCc1ccc(N2CCNC(=O)C2)cc1 | -23 | -22
12 | COCOc1cccc(CN2CCC2(C)C(=O)NCc2cccc(C(F)(F)F)c2)c1 (stereo not drawn) | 6 | -1

Given with each value named: four of the compounds above
8) CCOC(=O)CCCNC(=O)CSc1nnc(NCc2ccccc2)s1
  NPYLR7 agonist: -2 | NPYLR7 agonist max-min: -2

9) CCCc1c(C(=O)Nc2cc(-c3onc4c3CCCC4)cc(C(F)(F)F)c2)cnn1-c1ccccc1
  NPYLR7 agonist: 16 | NPYLR7 agonist max-min: 26

10) O=C(c1ccc(F)cc1)N1CCCC(OCc2ccccc2)C1 (stereo not drawn)
  NPYLR7 agonist: -4 | NPYLR7 agonist max-min: -1

11) Cc1ccccc1C(=O)NCc1ccc(N2CCNC(=O)C2)cc1
  NPYLR7 agonist: -23 | NPYLR7 agonist max-min: -22

(further entries)
No. | compound | NPYLR7 agonist | NPYLR7 agonist max-min
13 | COc1ccc(F)c(F)c1-c1nccn1C(C)Cn1nc(C)cc1C (stereo not drawn) | 42 | 19
14 | Cc1cc(N(C)C)nc(SCc2ccc(C(=O)NC(C)C)o2)n1 | 7 | 1
15 | COc1ccc(CCN(C)c2cc(Cl)nc(SCC(=O)NCCCN3CCCCC3C)n2)cc1OC (stereo not drawn) | 0 | 4
16 | Cc1cnc(NCCCN2CCCC2)nc1N(C)C | 7 | 4
17 | Cc1sc2ncnc(OCCC#N)c2c1C | -3 | 4
18 | COc1cccc(C(CC(=O)NCc2ccc(F)cc2)c2c[nH]c3ccccc23)c1 (stereo not drawn) | 20 | 13
19 | CN1CCCC(C(=O)Nc2ccc(Cl)c(Cl)c2)CC1 (stereo not drawn) | 0 | 1
20 | Cc1nc2c(=O)n(CC(=O)N3CCCc4ccccc43)nc(-c3cccs3)c2s1 | 8 | 5
21 | CCC(=O)Nn1cnc2c(c1=O)C1(CCCCC1)Cc1ccccc1-2 | 0 | 15
22 | OCCN(CCO)c1nc2cc(C(F)(F)F)ccc2s1 | 4 | 2
23 | CC1CN(c2ccc(-n3cc(C#N)c(=O)[nH]c3=O)cc2F)CC(C)O1 (stereo not drawn) | -9 | -9
24 | CCOC(=O)c1cnc(C)nc1NCCc1cccc(Cl)c1 | 23 | 19
25 | CCN(Cc1nc(C)no1)C(=O)c1csc(-c2cccs2)n1 | 4 | 1
26 | Cc1nc(C(C)C)ncc1C(=O)N1CCC2(CN(C)C(=O)O2)C1 (stereo not drawn) | 8 | 5
27 | CCC(c1ccccc1)c1nnc(NC(=O)c2ccco2)s1 (stereo not drawn) | -2 | -5
28 | CC(C)NCC(O)COC12CC3CC(CC(C3)C1)C2 (stereo not drawn) | 4 | 3
29 | COC(=O)c1cc2c(=O)n(C(C)C)ccc2nc1C | 4 | 8
30 | COc1ccccc1N1CC(O)(c2ccc(OC(F)F)cc2)[N+]2=C1SCCC2 (stereo not drawn) | 6 | 5
31 | COc1cccc2sc(N(CCCN(C)C)C(=O)c3ccc([N+](=O)[O-])s3)nc12 | 3 | 0
32 | CCC(C)NC(=O)c1cc(NC(=O)c2cc(OC)cc(OC)c2)ccc1N1CCN(c2ccccc2OC)CC1 (stereo not drawn) | -1 | 9
33 | CCOc1ccc(NC(=O)Nc2ccc(N3CCCC3)c(C(=O)NCc3ccccc3)c2)cc1 | -7 | -4
34 | CN(C)c1ccc(/C=N\NC(=O)C(NC(=O)c2ccccc2)c2n[nH]c(=O)c3ccccc23)cc1 (stereo not drawn) | -11 | -15
35 | CCC(=O)N1N=C(c2ccccc2)CC1c1ccccc1[N+](=O)[O-] (stereo not drawn) | 3 | -3
36 | CC(NC(=O)Cc1cccc2ccccc12)C(=O)N1CCCN(C)CC1 (stereo not drawn) | 13 | 6
37 | CCc1nc2ccc(C(=O)NCCN3CCOCC3)cn2c1N(C)C(=O)c1cccc(OC)c1 | 6 | 16
38 | COc1ccc(-n2nnc3c(SCC(=O)c4ccccc4)ncnc32)cc1 | 19 | 17
39 | CC(C)N1C(=O)c2ccc(C(=O)N3CCCC(C(=O)NCC4CC4)C3)cc2S1(=O)=O (stereo not drawn) | -1 | 3
40 | Cc1ccc(C(=O)O)cc1S(=O)(=O)NCc1nnc2n1CCCCC2 | 1 | 9
41 | COc1ccc2oc(=O)c(-c3nnc(Nc4cccc5ccccc45)s3)cc2c1 | -9 | -12
42 | CCCCCCCC(=O)Oc1ccc(C(=O)Nc2nnc(C)s2)cc1 | -5 | -8
43 | O=C(O)CSCC(=O)N[C@H]1CO[C@H]2[C@@H]1OC[C@@H]2Nc1nccc(-c2ccc3c(c2)OCO3)n1 | -5 | -13
44 | CCSc1nnc2c(n1)OC(c1cc(Br)cc(Br)c1OC)Nc1ccccc1-2 (stereo not drawn) | -5 | 2
45 | COc1ccc(C(C)=NNC(=O)CCn2nnc3ccccc32)cc1OC | -1 | 0
46 | O=C(CSc1ccccc1)N(CC(=O)N1CCc2sccc2C1c1ccc(Cl)cc1Cl)CC1CCCO1 (stereo not drawn) | 1 | 13
47 | Cc1cccc(C)c1OC(C)C(=O)O (stereo not drawn) | -1 | 0
48 | CCCNc1nc(Nc2ccccc2C)c2cnn(-c3ccccc3)c2n1 | 2 | 2
49 | COc1ccc(C)cc1S(=O)(=O)NCCc1csc2nc(-c3ccccc3F)nn12 | 2 | 2
50 | Cc1ccc(CCNC(=O)C2CCC(=O)N(CCCN3CCOCC3)C2)s1 (stereo not drawn) | -2 | -3
51 | CN1C2CCCC1CC(NC(=O)c1nn(C)c3ccccc13)C2 (stereo not drawn) | 1 | 6
52 | Cc1ccc(-c2noc(CCN(Cc3ccco3)CC(O)COCc3ccco3)n2)cc1 (stereo not drawn) | 3 | 2
53 | CC(C)CC(=O)N1CCN(C(=O)c2ccco2)CC1 | 3 | 3
54 | Cc1ccc(C2CC(C)CCN2C(=O)NCc2cccnc2)o1 (stereo not drawn) | 5 | 3
55 | CC(c1ccccn1)N(C)Cc1cccn1S(=O)(=O)c1ccccc1 (stereo not drawn) | 2 | 1
56 | CN(C)S(=O)(=O)N1CCC(n2nccc2NC(=O)Cc2ccccc2)CC1 | 17&3 | 3&1
57 | COc1cccc(OC)c1OCCCOc1ccc(Cl)cc1Br | -5 | -3
58 | CC(=O)N1CCC(C(=O)N2CCc3c(cnn3-c3ccc(Cl)cc3Cl)C2)CC1 | 1 | 19
59 | COCCN(Cc1cc(C)ccc1C)CC(C)O (stereo not drawn) | 22 | 25
60 | O=C(CCc1ccc(F)cc1)NCc1ccc(S(=O)(=O)NC2CC2)cc1 | -5 | -2
61 | Cc1cc(C)c(S(=O)(=O)N2CCC[C@@H]2C(=O)NCCCNC(=O)c2ccccc2)c(C)c1 | 2 | 14
62 | Nc1nc(-c2ccc(O)c(O)c2)cs1 | 3 | 8
63 | COc1cc(NCC2CNCCOC2)ncn1 (stereo not drawn) | -2 | -8
64 | Oc1oc(-c2ccc(Br)cc2)nc1C=Nc1ccccn1 | 5 | 5
65 | N#CCS(=O)(=O)c1ccc(Br)cc1 | 1 | 13
66 | Cc1nn(C)c(C)c1CNC1CCOc2ccccc21 (stereo not drawn) | 5 | 5
67 | C=C(C)COc1cccc(C(=O)NCCS(C)(=O)=O)c1 | -1 | -6
68 | CCn1nc(CC(C)C)cc1C(=O)NCc1nnc2n1CCC2 | 14 | 3
69 | CC(=O)COc1ccc2c(oc(=O)c3ccccc32)c1C | -12 | -23
70 | CCC(NC(=O)c1cc(OC)ccc1OC1CCN(C(C)=O)CC1)c1ccncc1 (stereo not drawn) | -1 | -2
71 | CCC(=O)NC1(C(F)(F)F)C(=O)Nc2c1c(=O)n(C)c(=O)n2C (stereo not drawn) | 3 | 0
72 | COc1ccc(-c2nccc(N3CCC(O)CC3)n2)c2ccc(C)nc12 | 1 | 0

One compound at a time, as listed above. Screens in order: NPYLR7 agonist, NPYLR7 agonist max-min
Nc1nc(-c2ccc(O)c(O)c2)cs1 in the list: 3, 8
COc1ccc(-c2nccc(N3CCC(O)CC3)n2)c2ccc(C)nc12 in the list: 1, 0
COc1cc(NCC2CNCCOC2)ncn1 (stereo not drawn) in the list: -2, -8
Cc1cc(C)c(S(=O)(=O)N2CCC[C@@H]2C(=O)NCCCNC(=O)c2ccccc2)c(C)c1 in the list: 2, 14
CCC(NC(=O)c1cc(OC)ccc1OC1CCN(C(C)=O)CC1)c1ccncc1 (stereo not drawn) in the list: -1, -2

Additional entries follow.
No. | compound | NPYLR7 agonist | NPYLR7 agonist max-min
73 | CCOC(=O)N1CCC2(CC1)[C@H](C(=O)N(C)c1ccccc1)[C@@H](OC)C(=O)N2C | 10 | 21
74 | COc1ccc(C(=O)N2CCN3CCNC(=O)C3C2)cc1N1CCOCC1 (stereo not drawn) | -4 | -5
75 | CCOC(=O)CS(=O)(=O)c1ccc(S(C)(=O)=O)cc1[N+](=O)[O-] | 3 | 7
76 | CN(C)c1ccc(NC(=O)Nc2cn(C)c3ccccc23)cc1 | 0 | -6
77 | O=C(COc1ccccc1)Nc1ccc(Nc2cc(-n3ccnc3)ncn2)cc1 | -14 | -18
78 | CCOc1ccc(NC(=O)N2CCSC2c2ccc(C(C)C)cc2)cc1 (stereo not drawn) | 14 | 26
79 | Cc1nc2scc(-c3cccs3)c2c(=S)[nH]1 | 8 | 2
80 | CCc1c(C)[nH]c2c1C(=NOC(=O)C(C)C)CCC2 | 24 | 21
81 | COc1cccc(CC2(CO)CCCN(C3Cc4ccccc4C3)C2)c1 (stereo not drawn) | 2&7 | -5&8
82 | CC(=O)Nc1ccc(S(=O)(=O)Oc2ccccc2CN(CC(C)C)C(=O)c2ccccc2F)cc1 | -2 | -7
83 | O=c1oc(-c2ccc(Cl)c([N+](=O)[O-])c2)nc2ccccc12 | -2 | -5
84 | CCCCCn1c(COc2ccc(Cl)cc2)n[nH]c1=S | -2 | -3
85 | CC1(C)OC(=O)C(=C2C3C4CC5C3C(=C3C(=O)OC(C)(C)OC3=O)C3C2C4C53)C(=O)O1 (stereo not drawn) | -3 | -14
86 | C[C@@H](NC(=O)C[C@@H]1[C@H](O)CCC2[C@](C)(CO)[C@H](O)CC[C@]21C)C(C)(C)C (stereo partly drawn) | 20 | 15
87 | Cc1cc(=O)n2nc(CN3CCc4sccc4C3c3ccccc3)sc2n1 (stereo not drawn) | 8 | 6
88 | O=C(c1cccc(Br)c1)N1CCCC(OCc2cccnc2)C1 (stereo not drawn) | -7 | -1
89 | CC(Nc1ccc(N2CCCC2=O)cc1)C(=O)N1CCCCCC1 (stereo not drawn) | 2 | 3
90 | CCOCCOc1nc(-c2ccccc2F)n(-c2ccc(NC(=O)c3cccc([N+](=O)[O-])c3)cc2)n1 | -2 | 4
91 | COc1ccc(C(=O)C2CCCN(Cc3cccc4cccnc34)C2)c(OC)c1 (stereo not drawn) | -1 | -3
92 | O=S(=O)(c1ccccc1)c1nc(N2CCCc3ccccc32)sc1Cl | -1 | 4
93 | CCCOc1cccn2c(N(C)C(=O)c3ccc4c(c3)OCO4)c(CC)nc12 | -19 | 0
94 | CCC(=O)N1CCN(c2cc(N3CCC(C)CC3)c(F)cc2[N+](=O)[O-])CC1 | -5 | -13
95 | C#CCN(CC=C)C(=O)c1ccc(OC2CCN(S(=O)(=O)N(C)C)CC2)cc1 | 4 | -1
96 | Cc1nnc(COC(=O)CCNC(=O)NC23CC4CC(CC(C4)C2)C3)o1 | 3 | 2
97 | Cc1ccc(-n2c(SCc3ccccc3)nnc2C(Cc2ccccc2)NC(=O)Cc2ccccc2)cc1 (stereo not drawn) | 26 | 27
98 | Cc1ccc(C(=O)N2CCCC(C(=O)NC3C4CCc5ccccc5C43)C2)cc1 (stereo not drawn) | 1 | -4
99 | CC(C)=CC(=O)N1CCC(N(CC(F)(F)F)S(C)(=O)=O)CC1 | -11 | -10
100 | O=C(Nc1ccnn1C1CCCC1)c1ccc2c(=O)n3c(nc2c1)CCC3 | 0 | -1
101 | Cc1ccc(C(O)=C2C(=O)C(=O)N(CCCN(C)C)C2c2ccc(C)o2)cc1 (stereo not drawn) | -3 | -6
102 | CCCn1cnc2c(nnn2CC)c1=O | -1 | 1
103 | CC(C)(C)C(=O)CSc1ncn[nH]1 | -4 | -6
104 | CCOc1ccccc1CNC(=O)c1c(C)noc1-c1ccc(OC)cc1 | -2 | 5
105 | O=C1NC(=S)N/C1=C/c1ccccc1Br | -4 | -10
106 | CC1CN(C(=O)CCNC(=O)N(C)Cc2ccccc2)CC(C)(C)O1 (stereo not drawn) | 3 | -17
107 | CCc1onc(C)c1C1CCCN1C(=O)c1c(Cl)cnn1CC (stereo not drawn) | 4 | -5
